CDC25B CDK2 inh: primary biochemical HTRF screen for blockers of M-phase inducer phosphatase 2 binding to CDK2/cyclin A | HTRF CDC25B-CDK2/CyclinA binding, anti-His/anti-Flag; active compounds read high | z-score (concentration not given with the values) | actives 0.72% (n = 94,000);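 further: score is relative to mean and SD of negative controls; strong numbers were not always called active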
TAR Tat displ: TAR RNA-Tat peptide displacers, HIV-1, primary screen, biochemical, FRET, FAM/TAMRA-labeled Tat. HIV-1 TAR RNA, Tat peptide displacement FRET; active compounds read high. z-score (no concentration beside the values). actives 0.6% (n = 100,000). AID 1259389, 2018;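 further: score is relative to mean and SD of negative controls; some compounds called inactive have numbers as strong as hits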
* marks the source's active call; other numbers are inactive results; . = no result given.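 How the source made its calls: active means z-score from 3 up in half or more of its runs; inactive means the rest.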

Second line of a record: TAR Tat displ | CDC25B CDK2 inh
- CCc1ccc(-c2[nH]c3[nH]c(=O)[nH]c(=O)c3c2-c2c(-n3cccc3)[nH]c(=O)[nH]c2=O)cc1
  -4.7 | -0.11
- Cc1c(C(=O)NCCCN2CCOCC2)oc2ccc3c(c12)C(=O)CC1(CCCC1)O3
  2.9 | -0.63
- CC1CCCC(C)N1C(=O)Cc1noc2ccccc12 (configuration not stated)
  1.1 | -0.41
- Clc1ccc(-c2csc(-c3ccc4c(c3)CCO4)n2)s1
  . | -0.47
- Nc1nc(-c2ccccc2)cn1Nc1ccccc1
  . | 0.99
- Cc1nnnn1-c1nc(-c2ccc(F)cc2)cc(C(F)(F)F)n1
  -1.4 | -1.7
- Cc1cccc(-c2noc(COc3ccc(C)cc3C)n2)c1
  . | -0.33
- COc1ccc(O)c(C(=O)C2c3ccccc3C(=O)N2c2ccc(C)cc2)c1 (configuration not stated)
  . | -3.1
- CC(=O)c1ccc(OCc2ccc(Cl)c(Cl)c2)cc1
  . | -1.4
- COc1cccc(N2CCCn3c2nc2c3c(=O)n(CC(=O)O)c(=O)n2C)c1
  1 | -1.1
- CC1CCCCN1CCNc1ncnc2scc(-c3ccc(F)cc3)c12 (configuration not stated)
  0.79 | .
- NCCCC[C@H](N)C(=O)N[C@@H](Cc1ccccc1)C(=O)N[C@@H](Cc1ccc(O)cc1)C(=O)O
  -0.8 | .
- Cn1c(-c2ccc(F)cc2)cnc1NCc1cccc(Cl)c1
  1.4 | -1.5
- COc1ccc(S(=O)(=O)c2cn(C)c3cc(N4CCCC(C)C4)c(F)cc3c2=O)cc1 (configuration not stated)
  0.8 | .
- Cc1cc(NCCc2ccc(Cl)cc2)c2nncn2n1
  0.9 | 0.57
- O=S(=O)(c1cccc2nsnc12)N1CCC(O)(c2cccc(C(F)(F)F)c2)CC1
  . | -0.62
- CCOc1ccccc1N1CC(c2nc3ccccc3[nH]2)CC1=O (configuration not stated)
  2.5 | -0.01
- COC(=O)c1sccc1N/N=C(\C#N)S(=O)(=O)c1ccccn1
  . | -0.69
- C=C(C)c1cccc(C(C)(C)NC(=O)N2CCN(c3ncccn3)CC2)c1
  2 | -1.7
- Cn1c(=O)c(=O)n(C)c2cc(S(=O)(=O)N3CCCC3C(=O)NCc3ccco3)ccc21 (configuration not stated)
  -1.8 | -1.2
- Cc1ccc(C)c(NS(=O)(=O)c2cc(-c3noc(C)n3)cs2)c1
  0.5 | .
- CSc1ccc(C2Nc3ccccc3S(=O)(=O)N2Cc2ccccc2)cc1 (configuration not stated)
  . | 0.56
- O=C(C1CCN(c2nnc(N3CCCCC3=O)s2)CC1)N1CCN(c2ccc(F)cc2)CC1
  2.8 | .
- N#C/C(=C/c1cccc2ccccc12)C(N)=S
  . | -1.6
- CCN1CCN(C(=O)Cn2ncc3c2-c2ccccc2OC3)CC1
  0.02 | -0.12
- C=CCn1c(O)c(C2=Nc3ccccc3SC(c3ccc(OC)cc3OC)C2)c(=O)[nH]c1=O (configuration not stated)
  0.61 | -0.82
- O=C(Cn1c2ccccc2n2ncnc12)c1cccs1
  -0.58 | -0.53
- CCOC(=O)C1=C(C)NC2=C(C(=O)CC(C)(C)C2)C1c1coc2ccc(C)cc2c1=O (configuration not stated)
  0.3 | -2.5
- Cn1c(C(=O)N2CCCC(C(=O)NCCN3CCOCC3)C2)cc2sccc21 (configuration not stated)
  . | -1.2
- O=C(Cc1cccc2ccccc12)Nc1ccc2nccnc2c1
  . | 0.47

(listing goes on)
Second line of a record: TAR Tat displ | CDC25B CDK2 inh
- CCC(C)(C)NS(=O)(=O)c1cn(C)cn1
  1.8 | .
- O=C(CSc1nc2c(c(=O)[nH]1)CCCC2)Nc1ccc(Br)cc1F
  0.39 | -2.4
- O=C([C@@H](c1ccccc1)N1Cc2ccccc2C1=O)N1CCCC1
  -0.12 | 1.8
- Cc1cc([N+](=O)[O-])nn1CCCC(=O)Nc1sc2c(c1C(N)=O)CCC(C)C2 (configuration not stated)
  . | -1.4
- Cc1ccc(-c2nc3ncccc3o2)cc1NC(=O)c1ccc2c(c1)OCO2
  . | -0.19
- Cn1c(-c2ccc(Cl)cc2)cnc1NCc1ccc(F)cc1F
  -0.92 | 1.3
- Cc1ccccc1-c1noc2ncnc(N(CCO)Cc3ccccc3)c12
  -1.8 | .
- O=C1Cc2cc(S(=O)(=O)Nc3ccccc3Cl)cc3c2N1CCC3
  1.7 | .
- CC1(C(=O)O)C2C=CC3(CN(c4ccccc4)C(=O)C31)O2 (configuration not stated)
  3.3 | 0.9
- Cc1cc(Nc2ccccc2)n2ncnc2n1
  1.8 | 0.81
- CCCCCNC(=O)C1CCC(Cn2c(=O)c3sccc3n(C)c2=O)CC1 (configuration not stated)
  2.1 | .
- CC1=C(C(=O)OCCc2ccccc2)C(c2ccc(C)s2)C2=C(CC(C)(C)CC2=O)N1 (configuration not stated)
  -0.21 | -1.5
- O=[N+]([O-])c1ccc(Cl)c(SSc2cc([N+](=O)[O-])ccc2Cl)c1
  . | -4.3
- COc1ccc(-c2noc(COc3ccccc3Cl)n2)cc1
  -1.4 | -1
- O=C(NCCCN1CCOCC1)C1C2C=CC3(CN(Cc4cccs4)C(=O)C13)O2 (configuration not stated)
  . | -0.47
- CCSc1nnc(NC(=O)c2c(-c3ccccc3)noc2C)s1
  . | -0.56
- Cc1ccsc1CCNS(=O)(=O)c1ccc2c(c1)NC(=O)CCS2
  0.76 | .
- Cc1cc(F)ccc1NS(=O)(=O)c1ccc2c(c1)NC(=O)CC(C)S2 (configuration not stated)
  0.06 | .
- O=C(O)c1ccc2c(c1)NC(=O)C1CCCCN21 (configuration not stated)
  0.46 | .
- O=C(Cn1ncc2c1-c1ccccc1OC2)NC1CC1
  0.9 | -1.3
- C#CCOc1ccc(C2C3=C(CCCC3=O)NC3=C2C(=O)CCC3)cc1
  -0.51 | 0.81
- N#Cc1csc(-c2ccc(F)cc2F)n1
  . | -1.5
- O=C(/C(=N/N=C/c1cccs1)c1ccccc1)c1ccccc1
  . | -1.2
- CC(C)Cn1cc(NC(=O)NCC2CCN(CCc3cccs3)CC2)c2ccccc2c1=O
  -0.53 | .
- COc1cccc(NS(=O)(=O)c2cc(/C=C/c3onc(C)c3[N+](=O)[O-])ccc2C)c1
  1.1 | .
- COc1ccc(N2C(=O)C3C4c5ccccc5C(c5ccccc54)C3C2=O)cc1 (configuration not stated)
  0.4 | -0.62
- COc1ccc(-c2cnc(NCc3ccc(Br)cc3)n2C)cc1
  -0.42 | 0.33
- CCCCc1nn2c(=O)cc(CSc3n[nH]c(CCC)n3)nc2s1
  0.6 | .
- CC1=C(c2ccc(C(C)C)cc2)S(=O)(=O)N=C1N1CCOCC1
  -1.2 | -1.7
- O=C(Nc1ccc(F)c(Cl)c1)C1CCC(CNc2c(N3CCOCC3)c(=O)c2=O)CC1 (configuration not stated)
  1.2 | 1

Some of the entries so far, tab-delimited:
compound	TAR Tat displ	CDC25B CDK2 inh
NCCCC[C@H](N)C(=O)N[C@@H](Cc1ccccc1)C(=O)N[C@@H](Cc1ccc(O)cc1)C(=O)O	-0.8	.
Cn1c(-c2ccc(F)cc2)cnc1NCc1cccc(Cl)c1	1.4	-1.5

More structures follow.
Second line of a record: TAR Tat displ | CDC25B CDK2 inh
- CCC(C(=O)N1CCc2ccccc21)n1nc(-c2ccc(C)cc2)ccc1=O (configuration not stated)
  0.93 | -1.2
- CCCCCCn1c(NCc2cccs2)nc2ccccc21
  0.55 | 2.1
- CC1(C)CCCC2=C1CC1C(=O)NN(c3ccccc3)C(=O)C1C2 (configuration not stated)
  . | 0.09
- Cc1nnc(C)c2c(C)n(Cc3ccc4c(c3)OCO4)c(C)c12
  -0.38 | -1.8
- CCOC(=O)N1CCN(C(=O)c2c[nH]c3ccc(S(=O)(=O)N(CC)CC)cc3c2=O)CC1
  1.1 | .
- O=C(c1cc2ccc3cccnc3c2[nH]1)N1CCN(c2cccc(Cl)c2)CC1
  1.9 | .
- O=C1C(=O)N(CCCN2CCOCC2)C(c2ccccc2)/C1=C(\O)c1ccccc1 (configuration not stated)
  0.01 | 0.81
- Cc1cc(C)cc(NC(=O)N2CCSc3ncccc32)c1
  0.52 | .
- Cc1ccc(Cl)cc1-n1ncc2c(NCc3ccco3)ncnc21
  0.46 | .
- CC1=C(C(=O)OCCOc2ccccc2)C(c2cccs2)C2=C(CC(C)(C)CC2=O)N1 (configuration not stated)
  -0.1 | 0.02
- O=C(c1ccc2c(c1)N(Cc1ccc(F)cc1)CCS2)N1CCN(c2ncccn2)CC1
  0.03 | -1.3
- O=C(NCCC1=CCCCC1)c1ccc2cn[nH]c2c1
  0.3 | .
- COC(=O)c1cc2occc2n1CC(=O)N(C)c1ccccc1
  -0.06 | -2.8
- O=C(CSc1nc2ccccc2nc1N1CCCC1)N1CCN(c2ccccc2)CC1
  -0.5 | -1.5
- Cc1cc(NS(=O)(=O)c2ccc(NS(=O)(=O)c3cccs3)cc2)nc(C)n1
  0.74 | -2.2
- COc1ccc(Nc2cc(C)nc(N3CCOCC3)n2)cc1
  1.5 | -1.9
- Cn1nc(C(=O)N(Cc2ccco2)CC2CCCO2)c2c1-c1ccccc1SC2 (configuration not stated)
  0.74 | -0.22
- Nc1ccc2nc(N3CCN(CCOc4ccc(Cl)cc4)CC3)cc(C(=O)O)c2c1
  -1.1 | .
- CC1(C)C(=O)N(CC(=O)N2CCN(C(=O)c3ccco3)CC2)c2ccccc21
  -0.18 | .
- CC1=C(C(=O)OCCc2ccccc2)C(c2ccc(C)o2)C2=C(CC(C)(C)CC2=O)N1 (configuration not stated)
  2.2 | -6.8
- C=C(C)Cn1c(=O)c2c(nc3n2CCN3c2ccccc2)n(C)c1=O
  0.8 | .
- COc1ccc(NC(=O)N2CCOc3ccc(Cl)cc32)cc1OC
  2.4 | .
- COC(=O)C1=NNC2C(=O)N(c3cccc(C)c3)C(=O)C12 (configuration not stated)
  1.1 | -0.23
- Cc1nn(-c2ccccc2)c2nc(-c3cccnc3)cc(C(F)(F)F)c12
  0.61 | 1.6
- Cc1ccc2scc(N3CCc4ccccc43)c(=O)c2c1
  -0.16 | .
- Cc1nc2c(s1)CCc1oc(C(=O)NCCCN(C)C3CCCCC3)c(C)c1-2
  2.8 | .
- N#Cc1nc(-c2ccc(F)cc2)oc1NC1CCCCC1
  0.55 | 0.45
- CCn1c(SCC(=O)O)nnc1-c1cc(Br)ccc1O
  0.5 | 0.4
- CCc1nnc2sc(Cc3ccc(Cl)cc3)nn12
  -0.02 | 0.66
- CC(C(=O)NNC(=O)c1ccccc1Cl)n1nnc(N2CCOCC2)n1 (configuration not stated)
  . | -1.7

Following part:
Second line of a record: TAR Tat displ | CDC25B CDK2 inh
- Cc1nnc(SCc2cc(=O)n3c(C)csc3n2)s1
  1 | -1.8
- Cc1ccc(C(=O)Cn2nc(-c3ccc(C)c(S(=O)(=O)N4CCOCC4)c3)ccc2=O)cc1
  -0.89 | 0.62
- CCN(CC)S(=O)(=O)c1cc(Br)cc2c1N(C(=O)C1CC1)CC2
  . | 1.6
- Clc1ccc(N2CCN(Cc3c[nH]c4ncccc34)CC2)cc1
  . | 1.3
- O=C1CCCC2=C1C(c1cccc(Br)c1)n1nc(-c3ccco3)nc1N2 (configuration not stated)
  . | -1
- Cc1cccc(OCC(O)Cn2c[n+](C)c3cc(C)c(C)cc32)c1 (configuration not stated)
  0.49 | -0.74
- FC(F)(F)c1ccc(/C=N/Nc2nccc(C(F)(F)F)n2)cc1
  . | 0.05
- O=C(NCCCN1CCCC1=O)c1nnc(-c2cccnc2)o1
  2.3 | -1.8
- NNC(=S)Nc1ccc(OC(F)(F)F)cc1
  . | -1.6
- CC(C)CN1CCn2c(nc3cc(Cl)ccc32)C1
  1.5 | -0.95
- Cc1ccc(NC(=O)CSC2CC(=O)N(c3ccccc3)C2=O)c(Cl)c1 (configuration not stated)
  . | -2.2
- Cc1cc(NS(=O)(=O)c2c(C)[nH]c(=O)[nH]c2=O)ccc1Br
  2.4 | .
- O=C(/C=C/Nc1cccc(C(F)(F)F)c1)C(F)(F)F
  . | -1.5
- Cc1nc2nc(NCc3cccc(Br)c3)[nH]n2c(=O)c1C
  0.23 | -0.55
- O=c1n(-c2ccccc2)c(=O)n2n1C1C=CC2C1
  . | -0.04
- CCOC(=O)c1oc2ccc(S(=O)(=O)Nc3cc4c(cc3OC)n(C)c(=O)n4C)cc2c1C
  0.78 | .
- CCC12CN3CC(C)(CN(C1)C3c1ccc(Br)cc1)C2=O (configuration not stated)
  -1.6 | -2.2
- O=C(CSc1nc2ccccc2nc1N1CCOCC1)N1CCN(C2CCCCC2)CC1
  0.08 | -0.91
- CC(C)(C)c1cc2n(n1)C1=NCCN1C=N2
  . | 0.47
- CC(=O)N1N=C(c2ccco2)OC1c1ccncc1 (configuration not stated)
  0.85 | .
- CCOC(=O)C1CCN(C(=O)C2(c3cccs3)CCOCC2)CC1
  1.2 | .
- COc1ccc(C(C)=O)cc1CS/C(=N/S(=O)(=O)c1ccccc1)Nc1cccc(F)c1
  . | 0.49

Grouped by structure, those above with bromine
Second line of a record: TAR Tat displ | CDC25B CDK2 inh
- O=C(CSc1nc2c(c(=O)[nH]1)CCCC2)Nc1ccc(Br)cc1F
  0.39 | -2.4
- COc1ccc(-c2cnc(NCc3ccc(Br)cc3)n2C)cc1
  -0.42 | 0.33
- CCn1c(SCC(=O)O)nnc1-c1cc(Br)ccc1O
  0.5 | 0.4
- CCN(CC)S(=O)(=O)c1cc(Br)cc2c1N(C(=O)C1CC1)CC2
  . | 1.6
- O=C1CCCC2=C1C(c1cccc(Br)c1)n1nc(-c3ccco3)nc1N2 (configuration not stated)
  . | -1
- Cc1cc(NS(=O)(=O)c2c(C)[nH]c(=O)[nH]c2=O)ccc1Br
  2.4 | .
- Cc1nc2nc(NCc3cccc(Br)c3)[nH]n2c(=O)c1C
  0.23 | -0.55
- CCC12CN3CC(C)(CN(C1)C3c1ccc(Br)cc1)C2=O (configuration not stated)
  -1.6 | -2.2
